# miR-21 reporter – qHTS Assay for Modulators of miRNAs and/orActivators of miR-21; Potency, µM (doses to about 38.3 µM), without a hit: top-dose reporter change, positive = more light; 340,000 tested, under 10 active; HeLa miR-21 FLuc reporter, luciferase, 48 h; active = well fitted rising curve with a large enough effect; inconclusive = small, poorly fitted or top-dose-only effect; inactive = no such curve, though single readings can be large or run the other way;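 note: % of control where 0% means no effect; miR-21 action dims this reporter so a rising signal means less miR-21 action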
#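 HeLa cells endogenously expressing miR-21, stably carrying CMV-driven firefly luciferase with a downstream miR-21 binding site, 2000 cells/well. Titrations up to approximately 40 uM, 48 hours; luciferase luminescence read.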
# * hit, by the source's call; ? = inconclusive. The list is partial. The share of hits here may be higher or lower than overall.
# The first 6 entries (preview)
SMILES,miR-21 reporter
Cc1ccc(NC(=O)CCS(=O)(=O)c2cccc3nsnc23)c(C)c1,5.8%
COCCNC(=O)Cn1c(=O)c2cccn2c2ccc(F)cc21,2.7%
Cc1cn2c(=O)c(S(=O)(=O)Nc3ccc(F)cc3F)c(C)nc2s1,2.0%
COc1ccc(-c2c(C)c3ccc(O)c(CN4CCC(C)CC4)c3oc2=O)cc1OC,-1.9%
CCOC(=O)c1ccc(NC(=O)Nc2cc3c(cc2N2CCCC2)n(C)c(=O)n3C)cc1,17.1%
Cc1cccc(CNC(=O)c2ccc3nc(-c4ccccc4)c(-c4ccccc4)nc3c2)c1,-3.6%

# Main list, from the start:
SMILES,miR-21 reporter
Cc1ccc(NC(=O)CCS(=O)(=O)c2cccc3nsnc23)c(C)c1,5.8%
COCCNC(=O)Cn1c(=O)c2cccn2c2ccc(F)cc21,2.7%
Cc1cn2c(=O)c(S(=O)(=O)Nc3ccc(F)cc3F)c(C)nc2s1,2.0%
COc1ccc(-c2c(C)c3ccc(O)c(CN4CCC(C)CC4)c3oc2=O)cc1OC,-1.9%
CCOC(=O)c1ccc(NC(=O)Nc2cc3c(cc2N2CCCC2)n(C)c(=O)n3C)cc1,17.1%
Cc1cccc(CNC(=O)c2ccc3nc(-c4ccccc4)c(-c4ccccc4)nc3c2)c1,-3.6%
Cc1ccc(-n2nc(CO)c(C(=O)NCCCCc3ccccc3)n2)cc1,10.1%
COc1ccc(C(=O)Nc2nc3nc(C)c(Cc4ccccc4)c(=O)n3[nH]2)cc1OC,7.2%
COC(=O)c1c(-c2ccc(Cl)cc2)noc1N1CCN(c2ccc(C(C)=O)cc2)CC1,-1.5%
CCOc1ccccc1NC(=O)CSc1ncc(S(=O)(=O)c2ccc(C(C)(C)C)cc2)c(=O)[nH]1,-1.4%
COc1ccccc1CNC(=O)C(=O)NCC(c1cccnc1)N1CCN(c2ccc(F)cc2)CC1 (stereo unspecified),26.7%
Cc1oc(-c2ccc(Cl)cc2)nc1Cn1c(=O)cc(C)c2c(C)nn(-c3ccccc3)c21,-1.2%
Cc1cccc(-c2nc(C)c(CCNC(=O)C(=O)Nc3cccc(Cl)c3C)s2)c1,-8.3%
COc1ccc(-c2nc(C)c(CCNC(=O)C(=O)Nc3cccc(F)c3)s2)cc1OC,-30.6%
CC(=O)Nc1ccc2nc(-c3cc(C)ccc3C)[nH]c2c1,-7.6%
COc1cc(C2c3c(oc4ccc(C)cc4c3=O)C(=O)N2Cc2ccc(F)cc2)ccc1O (stereo unspecified),-1.5%
Cc1cn(C)c(CC(=O)N2CCN(c3ccc(F)cc3)CC2)c1C(=O)O,-4.6%
COc1ccccc1NC(=O)C1=C(C)Nc2ncnn2C1c1cccn1C (stereo unspecified),-1.3%
COc1cc(NC(=O)c2nnn(Cc3ccc(F)cc3)c2N)cc(OC)c1,16.1%
COc1cccc(CNC(=O)Cn2cccc2C(=O)c2ccccc2)c1,-23.0%
Cc1ncc(CO)c2c1Oc1nc(-c3ccccc3F)nc(SCC(=O)N3CCCCC3)c1C2,1.0%
CN(C)c1ccc(C(=O)Nc2c(C(=O)NC(C)(C)C)oc3ccccc23)cc1,-10.7%
CCc1nn(CC(=O)N2CCN(c3ccc(Cl)cc3)CC2)c(=O)c2cc3occc3n12,-1.1%
Cn1c(=O)n(C)c2cc(NS(=O)(=O)c3ccc(Cl)cc3)c(NCc3ccccc3)cc21,-65.0%
CC(=O)OCc1cnc(C)c2oc(=O)c(C(=O)Nc3cc(F)ccc3C)cc12,0.6%
c1ccc(COCCC2CO2)cc1 (stereo unspecified),-0.1%
Cc1cccc(C)c1Nc1c(-c2ccccn2)nc2c(C)cccn12,?
COc1cc2c(cc1OC)C(COc1cc(C)cc(C)c1)N(C(=O)COc1ccccc1)CC2 (stereo unspecified),10.6%
COc1cccc(CNC(=O)c2cc(Sc3cccc(Cl)c3)nc3ccccc23)c1,0.3%
Cc1ccc(S(=O)(=O)N2CCC(C(=O)Nc3cc(C)ccc3C)CC2)cc1,28.4%
COc1ccccc1-c1nnc(C2CCN(C(=O)c3cccc(Cl)c3)CC2)o1,-8.0%
COc1ccc(NC(=O)CN2C(=O)S/C(=C/c3cccn3-c3ccc(C(=O)O)cc3)C2=O)cc1,1.4%
CCCCN(CCCC)S(=O)(=O)c1ccc(C(=O)Nc2sc3c(c2C(N)=O)CCN(CC)C3)cc1,6.3%
COc1cc2[nH]c(=O)n(Cc3ccc(C(=O)N4CCN(c5cc(Cl)ccc5C)CC4)cc3)c(=O)c2cc1OC,12.1%
COc1ccccc1-c1noc(-c2ccc(NCC3CCCO3)c([N+](=O)[O-])c2)n1 (stereo unspecified),3.2%
CCOc1ccc(CNC(=O)CC(C)n2nc(C)cc2C)cc1OC (stereo unspecified),29.5%
Cc1ccc2c(c1)N(C(=O)N1CCC(C(=O)NCc3cccc(Br)c3)CC1)CCO2,-8.4%
COc1cccc(CSc2nc3n(n2)C(c2ccc(C(=O)O)cc2)C(C(=O)Nc2ccccc2)=C(C)N3)c1 (stereo unspecified),3.9%
Cc1nc(-c2ccc(S(=O)(=O)N3CCN(c4cccc(Cl)c4)CC3)cc2)co1,0.6%
COc1cccc(CNCCSc2nnnn2C)c1OCc1ccccc1F,-0.6%
CCOc1ccccc1NC(=O)Cn1nnc2sc3c(c2c1=O)CCC(C(C)(C)C)C3 (stereo unspecified),-0.1%
COc1ccccc1NC(=O)C(Cc1ccccc1)NS(=O)(=O)c1cccc2nsnc12 (stereo unspecified),11.9%
CCN(c1ccc(Cl)cc1)S(=O)(=O)c1nnc(NC(=O)C2CCCCC2)s1,-2.9%
CC1CCn2c(nc3cc(C(=O)NCc4ccccc4)ccc32)C1 (stereo unspecified),-60.1%
CCOC(=O)c1cc(S(=O)(=O)N2CCN(c3ccccc3OC)CC2)[nH]n1,1.6%
CCOC(=O)c1c(N)n(-c2ccc(C)c(C)c2)c2nc3ccccc3nc12,-0.4%
N#C/C(=C\c1ccc(OCc2ccc(Cl)cc2Cl)cc1)c1nc2ccccc2[nH]1,-7.5%
CCN(c1ccc(Cl)cc1)S(=O)(=O)c1nnc(NC(=O)c2ccco2)s1,15.0%
Cc1ccc(-n2ncc3c(N(CCO)Cc4ccccc4)ncnc32)cc1,-8.2%
CCOc1ccc(CC(=O)Nc2c(C(=O)c3ccccc3)oc3ccc(Cl)cc23)cc1OCC,-1.8%
Cc1ccc(NC(=O)C2CCCN(c3nnc(C)c4c(C)n(-c5ccccc5)nc34)C2)cc1Cl (stereo unspecified),22.1%
CCOC(=O)c1cc(-c2ccccc2)n(CCCC(=O)Nc2cccc(C)c2)c1C,?
CCOC(=O)c1cc2c(=O)n3ccccc3nc2n(CC(C)C)c1=NC(=O)C(C)Oc1ccccc1 (stereo unspecified),3.3%
CCn1cc(C(=O)N2CCN(c3ccc(C)cc3)C(C)C2)c(=O)c2cc(S(=O)(=O)N3CCCC3)ccc21 (stereo unspecified),-6.5%
Cc1nc2ccc(S(=O)(=O)N(C)CC(=O)Nc3cccc(C(F)(F)F)c3)cc2s1,0.4%
Cc1ccc(-c2cn3nc(N4CCCC(C(=O)Nc5ccc(F)cc5)C4)sc3n2)cc1 (stereo unspecified),10.2%
CCOc1ccc(CNC(=O)CCS(=O)(=O)c2cc3c4c(c2)CCN4C(=O)CC3)cc1OC,2.5%
COc1cccc(CC(=O)Nc2c(C(=O)N3CCN(c4ccccc4)CC3)oc3ccccc23)c1,-5.0%
Cc1nc2nc(C)c(CCC(=O)NCc3ccccc3)c(C)n2n1,-3.1%
O=C(Cn1nc(Cc2cccnc2)c2ccccc2c1=O)N1CCN(c2ccccc2F)CC1,-1.4%

# The results go on.
SMILES,miR-21 reporter
COc1ccccc1C(C)NS(=O)(=O)c1cccs1 (stereo unspecified),0.5%
COc1cccc(OC)c1C(=O)Nc1ccc2c(c1)N(C(C)=O)CCC2,-3.0%
COc1ccc(OC)c(Nc2ncnc3c2cnn3-c2ccc(C)cc2)c1,-3.9%
Cc1cccc(-c2nc3cc(NC(=O)Cc4ccc(Cl)cc4)ccc3o2)c1,-19.3%
Cc1ccc2c(n1)sc1c(=O)n(-c3cccc(C(F)(F)F)c3)nnc12,1.5%
CCc1ccc(S(=O)(=O)c2nnn3c2nc(N2CCN(c4ccccc4)CC2)c2cc(Cl)ccc23)cc1,-2.2%
CCc1ccc(-c2nn(CC(=O)NC3CCCC3)c3c2cnc2ccc(C)cc23)cc1,3.7%
Cc1cccc(C)c1NC(=O)C(NS(=O)(=O)c1ccc2c(c1)CCC(=O)N2)c1ccccc1 (stereo unspecified),1.2%
CCCC(=O)N1CC(=O)Nc2ccc(Cl)cc2C1c1ccc(F)cc1 (stereo unspecified),-10.3%
Cc1ccccc1-c1nn2c(=O)cc(CN3CCN(C(=O)/C=C/c4ccccc4)CC3)nc2s1,16.8%
COc1cc(-c2cc(OC)c3c(C)oc(C)c3c(=O)c2)ccc1OC(=O)c1cccc(Cl)c1,-0.7%
Cc1ccc(NC(=O)c2cc3c(-c4ccccc4)nn(-c4ccccc4)c3s2)cc1,-6.1%

# Some of the entries so far, field by field:
> CCCC(=O)N1CC(=O)Nc2ccc(Cl)cc2C1c1ccc(F)cc1 (stereo unspecified)
  miR-21 reporter: -10.3%

> CCc1ccc(S(=O)(=O)c2nnn3c2nc(N2CCN(c4ccccc4)CC2)c2cc(Cl)ccc23)cc1
  miR-21 reporter: -2.2%

# (cont.)
SMILES,miR-21 reporter
CCC(Oc1ccccc1)C(=O)Nc1cc(-c2ccccc2F)nn1-c1ccccc1 (stereo unspecified),-7.1%
O=S(=O)(Nc1ccc2oc3c(c2c1)CCCC3)c1cc(Cl)ccc1Cl,-0.7%
CCOC(=O)C1=C(CN2CCCCC2)NC(=O)NC1c1ccc(C)cc1 (stereo unspecified),-5.9%
Cc1c(Cl)cccc1NC(=O)CN1C(=O)CCn2nc(-c3cccn3C)cc21,-14.8%
CCCOc1ccc(NC(=O)CC2C(=O)N(c3ccccc3)C(=O)N2CCC(C)C)cc1 (stereo unspecified),8.6%
N#C/C(=C\c1cccc(F)c1)c1nc(-c2cc3ccccc3oc2=O)cs1,-7.1%
Cc1ccc(C)c2sc(NC(=O)c3ccc(S(=O)(=O)N4CCC(C)CC4)cc3)nc12,13.2%
CCOC(=O)c1noc2ncn(CC(=O)Nc3ccccc3OC)c(=O)c12,-8.6%
Cc1nn(CC(=O)O)c(=O)c2cc3cc(F)ccc3n12,-13.3%
Cc1ccc(N(CC(=O)Nc2cccc(F)c2)S(=O)(=O)c2cccs2)cc1,-3.5%
Cc1cccc(NC(=O)Cn2c(=O)c3cccn3c3ccccc32)c1C,23.7%
CCOC(=O)CCc1c(C)c2cc3c(c(C)c2oc1=O)OCN(CCc1ccccc1OC)C3,-19.9%
Cc1cc(C)cc(NC(=O)Cn2c3ncccc3c(=O)n2-c2ccc(C)c(C)c2)c1,1.9%
Cc1ccc(-c2nnc(Nc3ccc(Cl)cc3)c3ccccc23)cc1S(=O)(=O)N1CCOCC1,3.2%
CCOc1ccc(CCNC(=O)CCCc2nnc3n(CC)c(=O)c4sccc4n23)cc1OCC,0.9%
CCCN(CCC)C(=O)C(Cc1ccccc1)NS(=O)(=O)c1ccc2c(c1)c(=O)n(C)c(=O)n2C (stereo unspecified),-0.1%
O=C(NCCc1ccc(Cl)cc1)C(=O)NCC(c1ccco1)S(=O)(=O)c1ccc(Cl)cc1 (stereo unspecified),-2.3%
Cc1c(Cl)cccc1Nc1sc(C(=O)c2ccccc2)c(N)c1S(=O)(=O)c1ccccc1,-7.8%
CN(C)S(=O)(=O)c1ccc2c(c1)N(CC(=O)N1CCCCC1)CCS2,-0.5%
CCc1cccc(-n2c(=O)c3cccnc3n2CC(=O)NCc2ccccc2)c1,-0.9%
COCCCNC(=O)C1CCCN(C(=O)c2cnn(-c3ccc(F)cc3)c2-n2cccc2)C1 (stereo unspecified),1.0%
O=C(c1ccc([N+](=O)[O-])cc1)N1CCN(c2ccc(Nc3ccccc3)nn2)CC1,3.8%
CN(Cc1ccccc1)C(=O)Nc1ccc2c(c1)N(C)C(=O)c1ccccc1S2,?
CCOc1ccc(N(C(C)C(=O)Nc2cc(Cl)ccc2OC)S(C)(=O)=O)cc1 (stereo unspecified),24.6%
Cc1cc(NC(=O)c2cnn(-c3ccccc3)c2-n2cccc2)ccc1Br,-36.6%
Cc1c2cnn(CC(=O)N3CCCCC3)c(=O)c2c(C)n1Cc1ccc(F)cc1,-14.8%
CCOC(=O)c1c(NC(C)=O)c2c3c(sc2n1Cc1nc(-c2ccccc2Cl)oc1C)CCCC3,0.2%
COc1ccc(NC(=O)c2nnn(-c3ccc(C(C)C)cc3)c2C)c(OC)c1,3.0%
COc1cc(NC(=O)Cn2c(=O)ccc3cc(S(=O)(=O)N4CCCC4)ccc32)cc(OC)c1,18.0%
Cc1ccc(C)c(NC(=O)Cn2cc(C(=O)c3ccc(Cl)cc3)c(=O)c3ccc(C)nc32)c1,-3.8%
Cc1cc(C)cc(C(=O)Nc2ccc(-c3nc4ncccc4o3)cc2)c1,-12.9%
CCOC(=O)c1[nH]c2c(c1Cc1ccccc1OC)C(=O)CC(c1ccc(OC)cc1)C2 (stereo unspecified),12.8%
Cc1nnc(N2CCN(C(=O)Nc3cc(F)ccc3F)CC2)c2nn(-c3ccc(Cl)cc3)c(C)c12,-0.3%
CCCN(CCC)CCNC(=O)Cn1cc2c(n1)-c1c(oc(C(=O)N3CCCC3)c1C)CC2,2.8%
Cn1ccc2cc(S(=O)(=O)N3CCN(C(=O)Nc4cccc(F)c4)CC3)ccc21,-1.2%
CCOc1ccc(NC(=O)CCc2c(C)nc3cc(-c4ccccc4OC)nn3c2C)cc1,-17.8%
COc1ccc(N(CC(=O)NCCc2ccc(C)cc2)S(=O)(=O)c2c(C)nn(C)c2C)cc1,0.1%
CCOc1ccc(CNC(=O)c2ccc3c(c2)nc2n3CCC(C)C2)cc1OC (stereo unspecified),2.2%
